Assay outcomes: PubChem, National Center for Advancing Translational Sciences (NCATS)
TRPV1 PAM – HTS Assay for Compounds that Act as Potentiators of the Vanilloid Receptor 1; Transient receptor potential cation channel subfamily V member 1 (Homo sapiens), Q8NER1; TRPV1-expressing cells, Fluo-8 calcium influx, capsaicin EC20 potentiation; host cell line not named in the record; control for the full effect not named in the record; potentiation, % at 8.33 µM; 0.02% of 320,000 active; active means potentiation above 80%; inconclusive means 30% to 80%; inactive means below 30%; note: 0% is about no effect
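TRPV1-expressing cells were cultured overnight at 35.5C and loaded with Fluo-8 calcium dye for 40 to 90 min at room temperature. After a 10 s baseline, compound was added and calcium influx was read kinetically for 3 min (ex 480/em 520 nm).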
CtBP-E1A blk – qHTS Assay for Inhibitors of the CtBP/E1A Interaction | AlphaScreen GST-E1A/His-CtBP binding, 1536-well; stronger effect = lower value; control for the full effect not named in the record | activity change, % (concentration not given with the values) | 0.49% of 340,000 active | AID 651724, 2012; in the data active means activity change below about -65%; inconclusive means about -30% to -65%; inactive means above about -30%; note: % is set by controls: 0 for no effect and ±100 for the full control effect
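AlphaScreen with 125 nM GST-E1A and 125 nM His-CtBP (5X stocks) in Tris pH 8.0, 300 mM NaCl, BSA, Tween 20, TCEP. Compounds preincubated 2 h at 37 deg C, then glutathione donor/nickel acceptor beads added for 1 h at 37 deg C in dark.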
D2 agonist – Beta-Arrestin HTS for Positive Allosteric Modulators of the Human D2 Dopamine Receptor: Agonists; 0.084% of 360,000 active; DiscoveRx PathHunter D2 beta-arrestin, luminescence, 90 min; 100% = 57 uM dopamine signal; D(2) dopamine receptor (Homo sapiens), P14416; activation, % (no concentration beside the values); AID 624465, 2012; in the data active = activation above about 40%; inconclusive = about 15% to 40%; inactive = below about 15%; note: compound concentration not given in the record; the text of the record calls up to 30% inactive
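Agonist mode: compounds alone added to overnight-plated D2 PathHunter cells for 90 min at 37 C, with 57 uM final dopamine (EC100) defining full response. Beta-arrestin recruitment detected by chemiluminescent reagent, read after 1 h at ambient temperature.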
Sfp PPTase inh – qHTS Assay for Inhibitors of Bacillus subtilis Sfp phosphopantetheinyl transferase (PPTase) | Biochemical Sfp PPTase activity, qHTS | AID 1490, 2009 | 3.5% of 310,000 active | Potency, µM, for inactives: max response, negative = inhibition, usual class: inhibitors; active = well fitted inhibition curve with a large enough effect; inconclusive = small, poorly fitted or top-dose-only effect, or another doubt; inactive = no such curve, though single readings can be large or run the other way;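 note: the enzyme is Sfp with the accession as filed and its product quenches rhodamine fluorescence; potency is the fitted concentration of half-maximal effect; 0% = enzyme reaction without inhibitor and -100% = no enzyme wells; top concentration of the series not given in the record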
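Sfp 15 nM + cpd, 15 min RT; start w/ rhodamine-CoA 5 uM, BHQ-2-YbbR 12.5 uM (final); 50 mM Hepes pH 7.6, 10 mM MgCl2, 0.01% NP-40, 0.01% BSA; read 525/598 nm at 0 and 30 min.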
Six1-Eya2 blk – qHTS Assay for Inhibitors of the Six1/Eya2 Interaction; 0.56% of 360,000 active; activity change, % (concentration not given with the values); Homeobox protein SIX1 (Homo sapiens) + Protein phosphatase EYA2 (Homo sapiens), …; AlphaScreen GST-Six1/His-Eya2 binding, biochemical; stronger effect = lower value; control for the full effect not named in the record; in the data active = activity change below about -65%; inconclusive = about -30% to -65%; inactive = above about -30%; note: % is set by controls: 0 for no effect and ±100 for the full control effect
Target sequence (O00167 whole entry, looked up): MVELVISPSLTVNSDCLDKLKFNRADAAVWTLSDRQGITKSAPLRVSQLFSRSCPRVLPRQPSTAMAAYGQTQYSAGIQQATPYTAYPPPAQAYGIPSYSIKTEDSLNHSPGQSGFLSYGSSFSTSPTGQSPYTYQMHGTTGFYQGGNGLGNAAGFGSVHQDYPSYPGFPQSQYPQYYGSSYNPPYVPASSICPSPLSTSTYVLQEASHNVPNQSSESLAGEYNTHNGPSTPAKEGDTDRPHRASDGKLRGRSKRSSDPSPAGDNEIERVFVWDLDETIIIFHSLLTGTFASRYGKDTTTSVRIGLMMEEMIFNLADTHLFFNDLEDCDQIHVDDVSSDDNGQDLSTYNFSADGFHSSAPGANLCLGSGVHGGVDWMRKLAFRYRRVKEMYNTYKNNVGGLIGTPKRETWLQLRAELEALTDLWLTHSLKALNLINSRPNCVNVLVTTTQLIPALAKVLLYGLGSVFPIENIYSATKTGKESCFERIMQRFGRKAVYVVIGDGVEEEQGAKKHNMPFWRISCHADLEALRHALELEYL
Target sequence (Q15475 whole entry, looked up): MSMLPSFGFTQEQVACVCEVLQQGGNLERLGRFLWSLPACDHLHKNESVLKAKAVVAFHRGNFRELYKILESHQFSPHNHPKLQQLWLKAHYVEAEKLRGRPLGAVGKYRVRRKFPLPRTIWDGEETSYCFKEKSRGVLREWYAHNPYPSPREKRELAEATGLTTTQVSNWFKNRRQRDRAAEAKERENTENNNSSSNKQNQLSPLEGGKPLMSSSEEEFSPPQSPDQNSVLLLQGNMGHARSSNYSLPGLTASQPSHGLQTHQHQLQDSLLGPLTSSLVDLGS
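AlphaScreen with GST-Six1 and His-Eya2 (5X mix: 250 nM and 500 nM), glutathione donor and nickel acceptor beads; buffer 50 mM Tris pH 8.0, 300 mM NaCl, 1 mM TCEP; 1 h at 37 C in the dark.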
D2 potentiator – Beta-Arrestin HTS for Positive Allosteric Modulators of the Human D2 Dopamine Receptor: Potentiators; DiscoveRx D2 beta-arrestin cells, luminescence, 90 min; 100% = 57 uM dopamine signal; 0.23% of 360,000 active; D(2) dopamine receptor (Homo sapiens), P14416; potentiation, % (test concentration not listed); AID 624464, 2012; active = potentiation of 50% or more; inconclusive = 30% to 50%; inactive = 30% or less;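 note: compound concentration not given in the record; tested on top of an EC20 dose of dopamine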
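PathHunter beta-arrestin assay in DiscoveRx D2 cells. Compounds were added with an EC20 of dopamine (50 nM final) for 90 min at 37 deg C. Luminescence was read 1 h after detection reagent, with 57 uM dopamine as the EC100 control.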
PINK1 expr mod – A Quantitative High throughput Screen to Identify Chemical Modulators of PINK1 Expression. PINK1 immunofluorescence, high-content cytometry, 24 h. Potency, µM (doses to about 76.6 µM), for the others: at the highest dose activation (PINK1 increase), hits mostly activators. 0.2% of 410,000 active. AID 624263, 2012; active = well fitted activation curve with a large enough effect; inconclusive = small, poorly fitted or top-dose-only effect; inactive = flat fitted curve, though single readings scatter; cell line not stated here;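 note: potency is the fitted concentration of half-maximal effect; % of control where 0% means no effect; nearly all actives have a fitted effect of over 65% in size; a mitochondrial uncoupler was the plate control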
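Fluorescence from anti-PINK1 antibody, together with nuclear and cell stains, was scanned on a laser-scanning cytometer. Before staining, stable-line cells were incubated 24 hours with compounds at 5 concentrations; primary antibody 12 h at 10 degrees C.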
* hit, by the source's call; ? = inconclusive; / = no result given; [ ] = another dose, or the depositor's remark. Compounds were not picked by outcome, and some 3.7% of all compounds hit somewhere here.

SMILES	TRPV1 PAM	CtBP-E1A blk	D2 agonist	Sfp PPTase inh	Six1-Eya2 blk	D2 potentiator	PINK1 expr mod
COc1cccc(C2CC(c3cccs3)=NN2C(=O)CSc2nc3c(cnn3-c3ccc(F)cc3)c(=O)[nH]2)c1OC (centres undefined)	?	3.2	0.3	-24.6%	7.2	-2.5	-1.0%
COc1ccc(/C=C2\SC(=S)N(CC(=O)Nc3nnc(C)s3)C2=O)cc1	18.3	5.8	-3.2	-10.9%	1.7	-4.4	1.4%
Cc1cc(C(=O)NC2CC(C)(C)Cc3c2cnn3-c2ccccc2)n[nH]1 (centres undefined)	-1.9	-0.1	1.8	7.0%	3.1	-5.1	1.5%
COc1cc(/C(O)=C(\C#N)c2nc3ccccc3[nH]2)cc(OC)c1OC	-1.7	/	0.3	7.8%	-14.9	4.6	2.9%
COc1ccc(-n2c(-c3ccc(F)cc3)cnc2SCC(=O)NCc2ccco2)cc1	-8.6	-22.8	-2.4	-1.2%	?	-12.3	1.6%[38.3 µM]
COC(=O)c1c(NC(=S)Nc2ccc(C(=O)N3CCOCC3)cc2)sc2c1CCC2	-4.6	/	-7.6	?	12.7	-5.2	2.4%
COc1ccc(CNC(=O)C2CCCN2C(=O)Nc2cccc(Cl)c2)cc1 (centres undefined)	/	3.1	-4.4	/	-0.8	-6.0	1.9%
CC(=O)c1ccc(OCCN2CCOCC2)cc1	-0.1	-0.5	-2.0	?	-1.8	-13.6	3.1%
CCOC(=O)c1cnc2ccc(C)cc2c1Nc1ccc(N2CCOCC2)cc1	-18.9	?	0.0	-18.6%	?	17.5	-1.3%
COc1ccccc1NC(=O)CN1C(=O)CSC(C)C1=O (centres undefined)	-4.7	/	-2.2	12.6%	7.9	-5.0	0.4%
CCOc1ccccc1N(CC(=O)NC1CCCCC1)C(=O)CCCC(=O)Nc1ccccn1	-19.0	-0.6	0.5	17.7%	5.4	-21.6	0.3%
C/C(=N\NS(=O)(=O)c1ccccc1)c1ccc2c(c1)OCO2	-1.3	9.1	1.1	-3.5%	13.6	6.5	-1.2%
Cc1nc2ccc(-c3ccccc3)cc2o1	1.3	13.1	-2.5	-23.8%	9.5	-5.6	14.2%
CCCCN(C(=O)c1cccc(C)c1)c1c(N)n(CCC)c(=O)[nH]c1=O	8.7	15.0	1.8	1.2%	2.6	-3.2	-1.7%
CNS(=O)(=O)c1cn(CC(=O)NCc2ccc(N(C)C)cc2)cc1S(=O)(=O)NC	-15.1	1.1	-1.5	10.8%	0.9	-3.4	-1.0%
COc1ccc(/C=C2\N=C(SC)N(c3ccccc3OC)C2=O)cc1	-4.3	5.5	-1.8	-15.0%	8.5	-9.1	1.7%
Cc1nc2ccccc2nc1N1CCCC1	-1.8	8.3	-3.0	-6.8%	8.9	-0.6	0.3%
O=C(COc1ccccc1)N1CCN(C(=O)Cc2ccccc2)CC1	11.8	5.5	3.5	-17.5%	-3.4	-8.5	0.1%
CC(=O)Nc1nc(CCN2C(=O)c3ccccc3C2=O)cs1	10.3	-1.4	-1.5	21.5%	-3.2	1.4	-0.3%
COc1ccc(-c2cc3cc(OC)c(OC)cc3c(C)n2)cc1	-10.7	-23.1	-1.8	-21.7%	?	0.3	0.7%
Cc1ccc(/C=N/NC(=O)NC23CC4CC(CC(C4)C2)C3)o1	-15.5	-6.3	1.4	89.1µM*	-8.7	1.1	7.7%
COc1cc(CN(CCN(C)C)Cc2ccccc2)ccc1OCc1ccccc1	9.4	-12.3	-6.1	-17.7%	-1.4	-15.7	-1.7%
COC(=O)[C@@]12CCCCN1[C@H](c1ccc(-c3ccccc3)cc1)[C@@H]1C(=O)N(C)C(=O)[C@@H]12	9.7	0.0	-2.2	/	-11.4	-22.3	1.0%
COC(=O)c1ccc(S(=O)(=O)NNC(=O)COc2ccc(C)cc2)cc1	-5.9	2.4	1.1	-6.1%	2.7	9.1	2.1%
Cc1ccc(C(=O)NCCNC(=O)c2ccco2)cn1	-0.5	-7.0	1.0	27.4%	2.3	-3.3	1.3%

Four compounds drawn at random from those above, as already listed:
SMILES	TRPV1 PAM	CtBP-E1A blk	D2 agonist	Sfp PPTase inh	Six1-Eya2 blk	D2 potentiator	PINK1 expr mod
Cc1ccc(/C=N/NC(=O)NC23CC4CC(CC(C4)C2)C3)o1	-15.5	-6.3	1.4	89.1µM*	-8.7	1.1	7.7%
O=C(COc1ccccc1)N1CCN(C(=O)Cc2ccccc2)CC1	11.8	5.5	3.5	-17.5%	-3.4	-8.5	0.1%
COc1ccc(CNC(=O)C2CCCN2C(=O)Nc2cccc(Cl)c2)cc1 (centres undefined)	/	3.1	-4.4	/	-0.8	-6.0	1.9%
CC(=O)c1ccc(OCCN2CCOCC2)cc1	-0.1	-0.5	-2.0	?	-1.8	-13.6	3.1%

Other structures follow:
SMILES	TRPV1 PAM	CtBP-E1A blk	D2 agonist	Sfp PPTase inh	Six1-Eya2 blk	D2 potentiator	PINK1 expr mod
Brc1ccc(-c2csc(N3CCc4ccccc4C3)n2)cc1	25.7	-2.7	0.1	6.1%	5.7	4.0	-1.1%
O=C(c1ccccc1)c1coc(-c2ccccc2)c1	/	6.2	-0.2	/	17.6	-6.3	2.1%
Cc1ccccc1C(=O)Nc1ccccn1	4.2	2.8	1.0	20.9%	7.7	8.9	6.0%
CNC(=O)c1ccc(Nc2nnc(C)c3ccccc23)cc1	29.6	?	-0.1	4.5%	?	-34.8	0.1%
Cc1c(C)n2c(SCC(=O)Nc3cccc4ccccc34)nnc2[nH]c1=O	12.6	-18.9	0.4	/	-12.7	8.7	1.4%
Cc1nn(-c2ccccn2)c2nc(-c3cccs3)cc(C(=O)N3CCOCC3)c12	-17.0	-6.9	0.0	-7.9%	-3.1	7.8	-2.6%
O=C(Nc1ccccc1-c1ccccc1)c1cc(C(F)(F)F)cc(C(F)(F)F)c1	17.0	-3.1	-8.1	24.0%	-0.9	-7.0	12.5%
Cc1cc2[nH]c(=O)c(=O)[nH]c2cc1S(=O)(=O)NCc1ccccc1	?	/	0.8	10.0%	2.4	-3.0	2.9%
CN(C)CCN(C(=O)c1ccc2c(c1)OCCO2)c1nc2cc3c(cc2s1)OCO3	5.8	-12.5	-3.2	-9.9%	-26.8	-36.4	-0.1%
COc1ccc(OCCC(=O)c2ccc(OC)cc2)cc1	11.0	11.4	2.5	10.6%	2.8	-2.3	1.8%
CCn1c(SCC(=O)N2CCOCC2)nc2sc3c(c2c1=O)CCCC3	1.2	1.3	0.1	0.5%	-7.5	-32.5	10.8%
COc1ccc(C(NC(=O)c2cc(OC)ccc2OC)c2ccccc2)cc1 (centres undefined)	8.4	-1.8	3.3	-20.7%	-1.5	-2.1	3.8%
O=C(NCCc1ccccn1)c1c(-c2ccccc2)sc2ccccc12	/	-2.2	-3.2	/	-5.8	-15.1	0.7%
CSc1cccc(NC(=O)Nc2nc3c(C)cccc3s2)c1	19.1	/	7.1	-7.3%	-0.9	2.9	6.0%
Cc1ccc(N2CCN(CC3CC=CCC3)CC2)cc1 (centres undefined)	11.1	-19.4	-1.8	-1.6%	-21.1	-15.4	23.5%[38.3 µM]
COc1ccc(NC(=O)c2cc(-c3ccco3)nc3ccccc23)cc1	/	4.4	-6.5	/	0.1	-8.9	10.3%
CC(C)CC#Cc1ccc2c(c1)O[C@H](CN(C)C(=O)Nc1ccccc1)[C@@H](C)CN([C@H](C)CO)S2(=O)=O	/	-6.0	-3.0	/	0.8	/	-0.5%
COc1ccc(CNc2cc(NCCCO)c([N+](=O)[O-])c3nonc23)cc1	-24.0	-10.5	1.5	-9.2%	-20.1	-2.9	1.7%
COc1ccc(NC(=S)NCc2ccc(S(N)(=O)=O)cc2)c(OC)c1	24.2	-1.4	-4.5	31.6µM*	3.3	-14.3	-0.4%
COc1cc(/C=C2/C(=O)NN(c3ccc(Cl)cc3)C2=O)cc(Br)c1O	-0.5	2.7	-0.4	-20.5%	1.6	-1.9	0.8%
C[C@@H]1CN([C@@H](C)CO)C(=O)c2cc(C#Cc3ccccc3)cnc2O[C@H]1CN(C)C(=O)c1ccccc1F	/	-1.7	-1.8	/	-6.2	-1.8	1.1%
CC1Sc2ccc(C(=O)NCc3ccccc3Cl)cc2NC1=O (centres undefined)	/	/	0.1	/	11.8	-9.8	11.3%
S=C(Nc1ccccc1)Nc1nc2ccccc2n1CCOc1ccccc1	-2.9	-23.9	-4.3	21.2%	-26.0	-19.6	-42.7%[inhibitor][38.3 µM]
COc1ccc(NC(=O)c2ccco2)cn1	2.3	-1.8	-2.3	18.9%	3.1	-6.2	-0.7%
O=C(CCCN1C(=O)c2ccccc2C1=O)Nc1ccc(S(=O)(=O)N2CCCCC2)cc1	-12.2	-1.9	-0.8	16.6%	-2.1	-9.2	?
The list goes on:
SMILES	TRPV1 PAM	CtBP-E1A blk	D2 agonist	Sfp PPTase inh	Six1-Eya2 blk	D2 potentiator	PINK1 expr mod
c1ccc(CCSc2nccn2-c2ccccc2)cc1	/	-15.8	-0.2	3.0%	-24.1	-15.0	1.2%
Cc1nc(-c2cc(C#N)c(=O)[nH]c2C)cs1	-8.4	11.7	0.2	8.8%	16.2	-0.4	-0.9%
COc1ccc(NS(=O)(=O)c2cc(NC(=O)c3cnccn3)ccc2N2CCCC2)cc1	-7.4	10.4	-2.4	-24.1%	1.3	-7.9	3.5%
CCn1cnc2cc(NCc3cccs3)ccc21	-3.2	-13.5	-2.9	11.5%	-4.4	-17.7	2.0%
COc1cccc(OC)c1C(=O)Nc1cccc(-c2ccc(N3CCOCC3)nn2)c1	17.4	-23.5	0.1	/	-4.7	7.5	0.9%
CCOC(=O)N1CCN(C(=O)CSCc2ccccc2Cl)CC1	-8.3	10.4	3.7	19.6%	3.3	-2.0	0.8%
CCOC(=O)N1CCN(S(=O)(=O)c2ccc(C(=O)NNc3nc4c(C)cc(C)cc4s3)cc2)CC1	23.2	2.7	0.3	?	2.1	-0.6	-0.9%
O=C(CN1C(=O)CSC1=O)Nc1ccccc1F	1.1	12.1	-3.2	12.4%	5.8	7.1	-1.0%
